GIV-Gai inh: inhibitors of GIV GBA-motif binding to rat Galpha-i3. P08753. 210,000 tested, 0.42% active. Galpha-i3/FITC-GIV peptide fluorescence polarization, 90 min; active compounds read low; scaled: aluminum fluoride 0%, vehicle 100%. percent of control (FP), % (test concentration not listed);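 active means replicate mean at 85% of control or lower, very high polarization wells dropped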;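 further: lower values mean more displacement of the GIV peptide from Galpha-i3; wells of about 15 µL received 100 nL stock; the first replicate is given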
Target sequence (P08753 whole entry, looked up): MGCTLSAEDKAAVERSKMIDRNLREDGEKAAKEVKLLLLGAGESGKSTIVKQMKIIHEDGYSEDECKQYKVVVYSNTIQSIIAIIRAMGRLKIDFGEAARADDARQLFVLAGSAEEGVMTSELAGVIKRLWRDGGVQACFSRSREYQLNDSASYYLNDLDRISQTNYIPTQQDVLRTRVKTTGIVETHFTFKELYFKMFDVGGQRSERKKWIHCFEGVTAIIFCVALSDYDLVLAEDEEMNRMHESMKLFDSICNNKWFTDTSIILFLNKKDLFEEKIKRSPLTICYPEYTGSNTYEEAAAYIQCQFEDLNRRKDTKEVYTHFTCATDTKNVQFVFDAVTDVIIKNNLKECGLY
Sa growth inh: S. aureus growth inhibition; S. aureus RN4220 growth, OD600, 20 h, 42 °C; active compounds read low; relative growth, % (test concentration not listed); 170,000 tested, 0.53% active;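 active means growth at 42 °C up to 50% and 20 or more points under that at 30 °C, or under 10% at both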;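 further: 300 nL library stock went into each well; scaled to the means of positive and negative controls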
HCMV NEC inh: disrupts HCMV UL50-UL53 complex binding. HTRF UL50-UL53 interaction, normalized percent inhibition. inhibition, % (test concentration not listed). 190,000 tested, 0.15% active;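 active means both replicates at 50% or more, plus weaker picks with an unusually low signal ratio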;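 further: stock transfer was 100 nL into about 20 µL; 0% = negative control wells and 100% = wells with untagged competitor protein; inactives centre near -12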
Sa growth inh second temp: also measured in Sa growth inh; calls as there; relative growth, %; measured here: growth at 30 °C;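 optical density after 20 h as mean of two plates; 100% = untreated growth and lower means inhibition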
Starred values were filed as active, the others as inactive; nt = no result given; & = joins results of further samples.

Below each compound – Sa growth inh second temp	Sa growth inh	GIV-Gai inh	HCMV NEC inh
1	CC(C(=O)Nc1ccccc1)N(C)CCOc1ccccc1 (configuration not stated)
  90.8	102.6	nt	-26.2
2	CCOC(=O)C1=C(C)N=C2SCCC(=O)N2C1c1ccc(OCc2ccccc2)c(OC)c1 (configuration not stated)
  87.5	116.8	104.8	3.9
3	CCOC(=O)c1cc(-c2ccc(F)cc2)n(CCC(=O)NC2CCC(C)CC2)c1C (configuration not stated)
  87.7	79.3	104.2	nt
4	CN1C(N)=NC(=O)/C1=C/c1cccnc1
  90.8	86.0	100.8	nt
5	Cc1ccc2nc(CN3CCN(S(=O)(=O)c4ccccc4)CC3)oc2c1
  90.6	99.3	104.2	nt
6	Cc1ccc(Nc2c(-c3ccc(N4CCOCC4)cc3)nc3cccc(C)n23)cc1
  90.9	101.9	101.9	-21.5
7	CN1CCN(C(=O)CSc2c(-c3ccccc3)c3cc(Cl)ccc3[nH]c2=O)CC1
  54.5	99.5	97.6	nt
8	COc1ccc(CCNC(=O)CN2N=C(c3ccc(C)cc3)CCC2=O)cc1OC
  103.9	100.2	103.9	6.3
9	O=C(NC1CCCC1)c1c[nH]c2ccc(S(=O)(=O)Nc3cccc(C(F)(F)F)c3)cc2c1=O
  44.9	108.4	99.5	-17.6
10	CCOC(=O)C1=NN(c2ccccc2OC)C2C(=O)N(c3ccc(Br)cc3)C(=O)C12 (configuration not stated)
  81.4	98.3	107.8	-43.6
11	CCC1CCCCN1S(=O)(=O)c1ccc(N2CCCCS2(=O)=O)cc1 (configuration not stated)
  83.2	88.3	98.1	nt
12	Cc1cc(C(=O)NN2CCOCC2)cs1
  104.6	100.9	108.7	1.7
13	COc1ccc(OCCN2C(=O)c3ccccc3S2(=O)=O)cc1
  95.0	101.7	nt	-15.6
14	CSC1=NC2(CCCCC2)CC12C=CC(=O)C=C2
  78.9	83.6	94.5	0.3
15	Cc1ccc(CSC2=Nc3ccccc3C3=NC(CCC(=O)N4CCN(c5ccccc5)CC4)C(=O)N23)cc1 (configuration not stated)
  86.4	112.5	97.4	-18.9

Additional structures
Below each compound – Sa growth inh second temp	Sa growth inh	GIV-Gai inh	HCMV NEC inh
16	OC(COc1ccc(-c2csnn2)cc1)CN1CCN(C(c2ccccc2)c2ccccc2)CC1 (configuration not stated)
  95.8	92.6	103.8	2.8
17	Cc1[nH]c(C(=O)N2CCC(CC(=O)N3CCN(c4ccccc4)CC3)CC2)c(C)c1C(=O)OC(C)C
  nt	nt	109.0	-8.3
18	O=C(CSc1nnc(-c2cc3ccccc3[nH]2)n1-c1ccccc1)NC1CCS(=O)(=O)C1 (configuration not stated)
  87.4	93.5	nt	-34.2
19	Cc1cc2nc(N3CCC(C)CC3)c3ccccc3n2n1
  92.9	88.6	nt	-8.5
20	C=CCNC(=O)c1ccc2c(=O)n(C3CCCC3)c(=S)[nH]c2c1
  92.3	96.8	106.1	-10.4
21	CCOc1ccc(NC(=O)N(C)CCc2noc(-c3ccc(Cl)cc3)n2)cc1
  nt	nt	107.9	1.0
22	Cc1ccc(S(=O)(=O)NCC(c2ccccc2)N(C)C)cc1 (configuration not stated)
  86.5	88.6	101.2&104.2	-12.7
23	CC1CCN(S(=O)(=O)c2ccc3c(c2)oc(=O)n3CC(=O)N2CCc3ccccc3C2)CC1
  nt	nt	104.7	-24.4
24	NC(=O)c1ccc(NC(=O)Cn2ccc(C(F)(F)F)n2)cc1
  96.9	89.1	nt	11.5
25	Clc1ccccc1-c1ccc(CNCCCn2ccnc2)o1
  nt	nt	106.4	-25.5
26	CCOc1ccc(CCNC(=O)CSc2nnnn2-c2ccc(C)cc2C)cc1OCC
  96.8	109.9	102.0	-5.0
27	CC(=O)Nc1ccc(S(=O)(=O)NCC(O)c2ccccc2)cc1 (configuration not stated)
  95.1	115.8	105.2	3.5
28	O=C(Nc1ccc2nc(SCc3ccccc3)sc2c1)c1ccccc1F
  88.6	104.5	99.2	-16.0
29	O=C(Cn1c2ncccc2c(=O)n1-c1ccccc1)Nc1ccc2c(c1)OCCO2
  nt	nt	105.7	-5.6
30	N=c1c2c(n(Cc3ccc(F)cc3)c3c1CCC3)CCC2
  18.3	46.6	106.9	-2.8

Next part
Below each compound – Sa growth inh second temp	Sa growth inh	GIV-Gai inh	HCMV NEC inh
31	NS(=O)(=O)c1ccc(NC(=O)Cc2csc(NC(=O)NC3CCCC3)n2)cc1
  nt	nt	114.7	1.1
32	C1CCN(CCC2CCCCN2)CC1 (configuration not stated)
  98.4	107.1	102.8	nt
33	Cc1cccc(Oc2ccc(NC(=O)CCCC(=O)O)cc2)c1
  89.3	110.9	nt	5.1
34	O=C(O)CSc1c2c(nc3cc(C(=O)NCC4COc5ccccc5O4)ccc13)CCC2 (configuration not stated)
  91.7	84.6	99.4	nt
35	O=C(NC1CCCC1)c1cc(=O)[nH]c2ccccc12
  108.4	91.3	111.0	28.6
36	CCCN(CCC)C(=O)c1cc(Cl)ccc1OC
  96.8	107.7	98.5	-4.1
37	CCN(CC)C(=O)Cn1cc(S(=O)(=O)CC(=O)Nc2ccccc2C(F)(F)F)c2ccccc21
  91.9	103.9	106.3	nt
38	COCCOC(=O)C1=C(C)NC2=C(C(=O)CC(c3ccc(OC)c(OC)c3)C2)C1c1cccc(C)c1 (configuration not stated)
  nt	nt	105.4	5.5
39	O=C(Cn1ccc2cc(S(=O)(=O)N3CCCCC3)ccc21)NCc1cccc(Cl)c1
  93.3	132.7	108.7	nt
40	CCOc1ccc(C(=O)c2cn(CC(=O)Nc3ccc(F)c(F)c3)c3cc4c(cc3c2=O)OCCO4)cc1
  82.2	90.6	105.2	7.3
41	CSc1nc(-c2ccccc2)nc(Nc2ccccc2)c1C#N
  85.5	98.7	102.5	-14.8
42	CC1(C)CC(=S)C=C(N2CCCCC2)C1
  74.3	83.5	96.9	nt
43	O=C(O)CC(c1ccccc1)c1cc(Cl)ccc1O (configuration not stated)
  75.9	92.0	96.1	nt
44	O=C1CCC2(C(=O)OCc3c(Cl)cccc3Cl)N1c1ccccc1C(=O)N2C1CC1 (configuration not stated)
  90.1	95.0	nt	-23.0
45	CCCn1c(SCC(=O)NCC(F)(F)F)n[nH]c1=O
  87.6	93.0	nt	-30.5

3 entries from above, arranged by SMILES length, highest first.
Below each compound – Sa growth inh second temp	Sa growth inh	GIV-Gai inh	HCMV NEC inh
17	Cc1[nH]c(C(=O)N2CCC(CC(=O)N3CCN(c4ccccc4)CC3)CC2)c(C)c1C(=O)OC(C)C
  nt	nt	109.0	-8.3
24	NC(=O)c1ccc(NC(=O)Cn2ccc(C(F)(F)F)n2)cc1
  96.9	89.1	nt	11.5
35	O=C(NC1CCCC1)c1cc(=O)[nH]c2ccccc12
  108.4	91.3	111.0	28.6

Remaining list, next part:
Below each compound – Sa growth inh second temp	Sa growth inh	GIV-Gai inh	HCMV NEC inh
46	O=C(Oc1cccc(Br)c1)c1cccnc1Cl
  90.3	110.9	nt	-28.5
47	CC1(C)Cc2c(sc3ncn4nc(COc5ccc(Cl)cc5)nc4c23)C(C)(C)N1
  100.0	106.5	99.7	nt
48	O=C(Nc1nc2c(s1)CCCC2)c1ccc(S(=O)(=O)N2CCc3ccccc32)cc1
  nt	nt	105.4	-21.9
49	COCC(=O)N(c1ccc(OC)cc1)C1C=CS(=O)(=O)C1 (configuration not stated)
  97.3	119.7	98.6	nt
50	CC(C)CNC(=O)c1cc(-c2ccccc2F)no1
  77.7	89.8	95.8	-18.5
51	Cc1c(-c2nnnn2-c2ccc(Cl)cc2)cnn1-c1ccccc1
  79.1	104.0	103.0	-3.2
52	Cc1ccc(-c2csc(NC(=O)COC(=O)c3cccs3)n2)cc1
  100.2	101.4	nt	-27.2
53	Clc1ccc(N2CCN(Cc3nnc(-c4ccc5c(c4)OCO5)o3)CC2)cc1
  95.3	103.6	101.6	-8.4
54	Cc1ccsc1C(=O)NC(C)C(c1cccs1)N1CCCC1 (configuration not stated)
  89.5	80.9	nt	-7.5
55	COc1ccccc1OCc1nn2c(-c3cc(C)[nH]n3)nnc2s1
  nt	nt	103.9	-6.4
56	Cc1cc(C)n(CC(=O)Nc2ccccc2)c(=O)c1S(=O)(=O)c1ccc(Br)cc1
  nt	nt	101.4	-18.7
57	Cc1ccc(C)c(Cn2c3ccccc3c3cnn(CC(=O)NC4CCCCCC4)c(=O)c32)c1
  100.6	107.8	102.8	6.4
58	COc1cc(Cl)c(C)cc1NC(=O)c1c(C)oc2nc(C)nc(N3CCCC3)c12
  101.3	104.9	106.6	nt
59	O=S(=O)(c1ccccc1)N1CCc2ccccc21
  106.5	111.0	172.6	-43.0
60	COc1cc(CN(CCN(C)C)Cc2ccccc2)cc(OC)c1
  105.1	100.3	100.0	-11.6

Reprinted at random: 2 entries already listed, in no set order.
Below each compound – Sa growth inh second temp	Sa growth inh	GIV-Gai inh	HCMV NEC inh
51	Cc1c(-c2nnnn2-c2ccc(Cl)cc2)cnn1-c1ccccc1
  79.1	104.0	103.0	-3.2
57	Cc1ccc(C)c(Cn2c3ccccc3c3cnn(CC(=O)NC4CCCCCC4)c(=O)c32)c1
  100.6	107.8	102.8	6.4

Continuation:
Below each compound – Sa growth inh second temp	Sa growth inh	GIV-Gai inh	HCMV NEC inh
61	Cc1[nH]c(C)c(S(=O)(=O)NCCc2ccccc2)c1C(=O)N1CCCC1
  82.7	97.3	99.7	14.2
62	CC1CCc2c(sc3nc(CN4CCCC4)[nH]c(=O)c23)C1 (configuration not stated)
  96.7	105.0	nt	14.0
63	CCc1ccc(NC(=O)c2cc3c(=O)n(Cc4ccc(OC)cc4)ccc3nc2C)cc1
  nt	nt	104.5	-14.3
64	CN1C(=O)Cc2cc(S(=O)(=O)N3CCc4ccccc43)ccc21
  88.2	88.8	99.9	-4.7
65	CCOC(=O)c1cn2ccccc2c1C(=O)OCC
  nt	nt	94.8	-40.7
66	CS(=O)(=O)Nc1ccccc1C(=O)NC1CCCC1
  106.1	97.2	100.7	2.9
67	COc1ccc(CNC(=O)c2cc(OC)c(OC)c(OC)c2)cc1
  89.9	90.5	106.8	-14.0
68	CCOc1ccc(Nc2c(S(=O)(=O)c3ccccc3)cnc3ccc(F)cc23)cc1
  95.8	92.2	102.9	1.2
69	CN1CCN(C(=S)NC(CC(=O)c2ccccc2)c2ccccc2)CC1 (configuration not stated)
  98.0	94.7	nt	-7.7
70	CCOC(=O)Cc1csc(SCn2nnc3ccccc3c2=O)n1
  92.7	91.4	nt	-13.4
71	COc1ccccc1OCCn1c(=O)sc2ccccc21
  92.2	81.7	97.7	-24.7
72	CCOCc1cc(-c2csc(N)n2)ccc1OC
  86.6	89.1	nt	-18.1
73	O=C(CC(SC1CCCCC1)C(=O)O)c1ccc(Br)cc1 (configuration not stated)
  72.6	131.1	nt	4.8
74	CCOc1ccc(C(=O)Nc2ccc3oc(-c4ccc5ccccc5c4)nc3c2)cc1
  91.2	102.4	102.4	-16.4
75	CC1CN(C2CC(C)(C)NC(C)(C)C2)CCC1=O (configuration not stated)
  88.0	97.2	nt	-14.1

Copied from the list:
Result of cpd 74 under Sa growth inh second temp: 91.2
Result of cpd 66 under Sa growth inh: 97.2
Result of cpd 69 under HCMV NEC inh: -7.7
Result of cpd 73 under Sa growth inh second temp: 72.6
Result of cpd 64 under Sa growth inh second temp: 88.2

Remaining list, next part:
Below each compound – Sa growth inh second temp	Sa growth inh	GIV-Gai inh	HCMV NEC inh
76	Cc1cn2c3c(=O)n(C)c(=O)n(C)c3nc2n1CCO
  99.4	107.7	106.7	2.2
77	O=C1NC2(CCCCC2)C(=O)N1c1ccc(C(F)(F)F)cc1
  78.4	88.8	97.9	-18.8
78	O=C1NC(=O)C(CCCCO)N1 (configuration not stated)
  94.9	99.9	106.4	-5.5
79	Cc1c(-c2nn3c(-c4ccncc4)nnc3s2)oc2ccccc12
  nt	nt	95.5	1.0
80	COc1cc(NC(=O)Cn2cnc3c2c(=O)n(C)c(=O)n3C)cc(OC)c1OC
  77.5	95.2	102.0	-4.6
81	CCSCCOC(=O)C1=C(C)NC2=C(C(=O)CCC2)C1c1cc2c(cc1Br)OCO2 (configuration not stated)
  nt	nt	105.0	-11.7
82	CC(C)N(C(=O)COc1c(CO)cc(Br)cc1CO)c1ccccc1
  91.0	121.9	nt	1.7
83	CCCc1ccc(-c2ccc(C(N)=O)cc2)cc1
  96.4	82.3	102.2	nt
84	Cc1ccc(NC(=O)N2CCOc3ccc(Cl)cc32)c(C)c1
  94.0	97.0	101.1	-17.1
85	CC1Cc2ccccc2N1C(=O)Cn1nnc(-c2ccccc2F)n1 (configuration not stated)
  82.8	125.3	103.1	-23.2
86	C=CCNC(=O)c1cc(-c2ccc(Cl)c(Cl)c2)on1
  88.4	102.4	102.4	nt
87	C/C(=N\NCc1cn2ccccc2n1)c1ccccc1
  59.4	62.0	nt	-52.9
88	COc1ccc(C(C#N)N2N=C(C)CC2c2ccccc2)cc1OC (configuration not stated)
  84.3	71.3	101.1	15.2
89	Fc1ccc(-c2noc3ncnc(NC4CCCCC4)c23)cc1
  97.5	101.0	103.2	nt
